# PINK1 expr mod: PINK1 expression modulation | Potency, µM (highest dose often 76.6 µM), for inactives: at the top dose activation (PINK1 increase), hits mostly activators | 0.2% of 410,000 active | AID 624263 | PINK1 immunofluorescence, high-content cytometry, 24 h; active = well fitted activation curve with a large enough effect; inconclusive = small, poorly fitted or top-dose-only effect; inactive = flat fitted curve, though single readings scatter; cell line not stated here;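 further: potency means the concentration at half of the fitted maximal effect; % of control where 0% means no effect; nearly all actives have a fitted effect of over 65% in size; a mitochondrial uncoupler was the plate control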
#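 PINK1 protein, normally rapidly degraded, was detected by immunofluorescence after 24 hour compound treatment of a stable cell line. Titration data (5 concentrations) came from laser-scanning cytometry, with CCCP-treated wells as controls.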
# TRPML1 blocker: inhibitors of human TRPML1 channel; TRPML1-inducible cells, Ca2+ dye fluorescence, FDSS; hits give low values; inhibition of EC80 agonist-evoked calcium signal; activity change, negative = inhibition, % (no concentration beside the values); 0.02% of 390,000 active; in the data active means activity change below about -50%; inconclusive means about -30% to -50%; inactive means above about -30%;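 further: stimulus is agonist 54-4 at its EC80 concentration; on the % scale 0 is the no-effect control and ±100 the full control effect; compound concentration not given in the record; the text of the record puts the active cut at -80%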
# Target sequence (Q9GZU1 whole entry, looked up): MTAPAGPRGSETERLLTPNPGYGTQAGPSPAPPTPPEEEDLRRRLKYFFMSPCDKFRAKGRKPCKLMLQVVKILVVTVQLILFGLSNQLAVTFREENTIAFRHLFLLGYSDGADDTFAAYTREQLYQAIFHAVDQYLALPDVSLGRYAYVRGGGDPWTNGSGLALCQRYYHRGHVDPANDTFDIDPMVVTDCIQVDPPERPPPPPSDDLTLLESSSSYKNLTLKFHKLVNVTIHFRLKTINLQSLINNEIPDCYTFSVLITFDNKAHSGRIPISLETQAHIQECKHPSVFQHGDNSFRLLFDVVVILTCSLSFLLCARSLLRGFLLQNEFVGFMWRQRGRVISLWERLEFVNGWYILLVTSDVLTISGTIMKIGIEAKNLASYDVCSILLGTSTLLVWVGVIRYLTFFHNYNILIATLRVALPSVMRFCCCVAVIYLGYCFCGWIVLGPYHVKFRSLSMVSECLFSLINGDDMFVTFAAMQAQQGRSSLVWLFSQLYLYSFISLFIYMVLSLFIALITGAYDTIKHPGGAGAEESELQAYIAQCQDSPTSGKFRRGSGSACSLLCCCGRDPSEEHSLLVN
#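 TRPML1-DL cells, Tet-induced overnight (~16 h, 37 °C) at 1,500 cells/well, were loaded with Ca8 no-wash dye plus quencher for 45-90 min at room temperature. Compounds were pinned during FDSS kinetic reading; agonist 54-4 at EC80 (4 uM final) then added.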
# TRPML1 agonist: agonists of human TRPML1 channel; Q9GZU1; 0.12% of 410,000 active; TRPML1-expressing cells, Ca2+ dye fluorescence, FDSS; host cell line not named in the record; reference of the full effect not given here; activation, % (test concentration not listed); in the data active = activation above about 50%; inconclusive = about 30% to 50%; inactive = below about 30%; further: 0% is about no effect; the text of the record puts the active cut at 80%
#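 Agonist activity was taken from a 110 s kinetic Ca2+ dye read on the FDSS after pinning compounds onto TRPML1-DL cells. The cells were seeded at 1,500/well with Tet inducer, incubated about 16 h, then dye-loaded at room temperature.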
# D2 PAM: potentiates the human D2 dopamine receptor allosterically; AID 624464; DiscoveRx D2 beta-arrestin cells, luminescence, 90 min; 100% = 57 uM dopamine signal; 0.23% of 360,000 active; P14416; potentiation, % (no concentration beside the values); active = potentiation of 50% or more; inconclusive = 30% to 50%; inactive = 30% or less;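 further: compound concentration not given in the record; tested on top of an EC20 dose of dopamine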
# Target sequence (P14416 whole entry, looked up): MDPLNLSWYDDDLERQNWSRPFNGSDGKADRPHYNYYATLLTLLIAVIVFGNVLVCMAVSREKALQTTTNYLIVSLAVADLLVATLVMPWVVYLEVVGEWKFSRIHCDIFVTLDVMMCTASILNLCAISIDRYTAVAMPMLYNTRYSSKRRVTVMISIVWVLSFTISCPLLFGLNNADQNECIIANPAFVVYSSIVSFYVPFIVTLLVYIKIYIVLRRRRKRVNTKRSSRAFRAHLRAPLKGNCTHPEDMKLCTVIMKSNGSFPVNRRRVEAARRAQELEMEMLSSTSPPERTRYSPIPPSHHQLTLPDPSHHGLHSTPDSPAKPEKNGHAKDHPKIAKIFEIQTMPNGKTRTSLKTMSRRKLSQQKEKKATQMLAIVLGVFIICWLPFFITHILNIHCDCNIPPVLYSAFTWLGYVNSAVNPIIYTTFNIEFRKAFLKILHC
#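 PathHunter beta-arrestin assay in DiscoveRx D2 cells. Compounds were added with an EC20 of dopamine (50 nM final) for 90 min at 37 deg C. Luminescence was read 1 h after detection reagent, with 57 uM dopamine as the EC100 control.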
# Six1-Eya2 inh: inhibitors of human Six1/Eya2 interaction; AlphaScreen GST-Six1/His-Eya2 binding, biochemical; hits give low values; control for the full effect not named in the record; activity change, % (no concentration beside the values); 0.56% of 360,000 active; AID 651725; in the data active = activity change below about -65%; inconclusive = about -30% to -65%; inactive = above about -30%; further: on the % scale 0 is the no-effect control and ±100 the full control effect; compound concentration not given in the record
#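 AlphaScreen luminescence read after one hour at 37 °C in darkness. Pin-transferred compounds met GST-Six1 and His-Eya2 protein (5X stock 250 nM/500 nM) plus glutathione donor and Ni-chelate acceptor beads (5X, 50 ug/mL).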
# D2 agonist: human D2 receptor agonism in beta-arrestin assay. DiscoveRx PathHunter D2 beta-arrestin, luminescence, 90 min; 100% = 57 uM dopamine signal. P14416. 0.084% of 360,000 active. AID 624465. activation, % (test concentration not listed); in the data active = activation above about 40%; inconclusive = about 15% to 40%; inactive = below about 15%; further: compound concentration not given in the record; the text of the record calls up to 30% inactive
#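 DiscoveRx PathHunter D2 beta-arrestin cells (2,100/well) attached overnight, then compound-stimulated 90 min at 37 C in HBSS/10 mM HEPES/0.1% Tween-20 buffer; beta-galactosidase complementation read by luminescence after 1 h at ambient temperature. Dopamine 57 uM final (EC100) as control.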
# Numbers without * were called inactive; ? = inconclusive; . = no result given; [ ] = dose if it differs, or a comment.
# Sequence of screens: PINK1 expr mod	TRPML1 blocker	TRPML1 agonist	D2 PAM	Six1-Eya2 inh	D2 agonist
- O=C(Cn1cnc2ccccc2c1=O)c1ccc2ccccc2c1
→ ?	5	0.0	0	-1	-1.0
- C#CCOCCOCCOCCNc1nc(N2CCN(C(=O)CCCCCCCCCCNC(=O)Cn3cc(CCCCCN)nn3)CC2)nc(N2CCN(C(=O)CCCCCCCCCCNC(=O)[C@H]([C@@H](C)CC)n3cc(CCCCCN)nn3)CC2)n1
→ -1.9%	5	2.3	-17	-2	3.7
- CCN(CC)c1ccc(C(=C2C=CC(=[N+](CC)CC)C=C2)c2ccc(N(CC)CC)cc2)cc1
→ 0.5%	85	4.2	-6	-78*	-4.4
- CN(C1CCCCC1)S(=O)(=O)c1cccc2nsnc12
→ 3.0%	-15	-0.6	-4	-4	-3.9
- CC(=O)c1cccc(-c2cnc3c(NC=O)cc(-c4ccccc4F)cn23)c1
→ 1.5%	.	-0.6	-5	-13	3.8
- O=C(c1ccc(F)cc1)N1CCCC(C(=O)N2CCN(c3ccccc3)CC2)C1 (stereo unspecified)
→ -0.2%	1	0.1	-3	-6	-5.2
- O=C(c1ccc(Cl)cc1)N1CCCOC1
→ -2.1%	11	0.0	-7	9	-4.4
- Cc1cc(SCC(=O)N/N=C/c2ccc(O)c(O)c2)nc2ccccc12
→ 1.4%	13	0.2	7	-7	?
- Cc1ccc(-c2cc(C(=O)N/N=C/C=C/c3ccccc3)n[nH]2)s1
→ 10%	1	3.6	3	-16	4.7
- COc1cc(C(=O)O)cc(NC(=O)c2ccco2)c1OC
→ 2.3%	1	-0.3	-4	0	1.0
- CC(C)N(CCNC(=O)COc1ccc2oc3c(c2c1)CCCC3)C(C)C
→ 2.0%	-17	0.4	-27	-12	-3.4
- CCOC(=O)N1CCN(CCC(=O)Nc2ccc(C)cc2)CC1
→ 1.0%	-11	0.5	-19	2	-2.5
- O=C(Cn1nnc(-c2ccc(C(F)(F)F)cc2)n1)NCCc1ccccc1
→ -0.8%	4	0.3	.	.	.
- CC(C)N1C(=O)CN(C2CCCCCC2)C(=O)C1c1ccccc1F (stereo unspecified)
→ 2.0%[38.3 µM]	-6	0.0	2	-1	-2.4
- O=C(COC(=O)CNC(=O)c1ccc(Cl)cc1)Nc1ccc(Cl)cc1C(F)(F)F
→ 5.9%	5	1.4	10	10	-1.7

# Sequence of screens: PINK1 expr mod	TRPML1 blocker	TRPML1 agonist	D2 PAM	Six1-Eya2 inh	D2 agonist
- CCSc1nnc(Nc2ccc(C)cc2)s1
→ -0.7%[38.3 µM]	1	1.1	-14	0	-0.2
- C#CCNC(=O)C1=C[C@@H](c2coc3ccccc3c2=O)C[C@@H](OCCCCO)O1
→ 3.5%	-6	0.0	-10	3	-1.7
- O=C(COc1ccccc1)Nc1ccncc1
→ 0.9%	10	0.2	0	6	4.8
- CCS(=O)(=O)c1nc(S(=O)(=O)c2ccc(C)cc2)c(NCc2ccccc2Cl)s1
→ 2.9%	0	1.3	.	.	.
- COc1cccc2c1C(=O)c1c(O)c3c(c(O)c1C2=O)C[C@](O)(C(C)=O)C[C@H]3O[C@@H]1C[C@@H](N)[C@@H](O)[C@@H](C)O1
→ -1.2%	7	7.0	11	-13	-3.7
- Cc1cc(C)cc(C(=O)N2CC(=O)Nc3ccc(Br)cc3C2c2ccccc2)c1 (stereo unspecified)
→ 11%	14	3.0	.	.	.
- C[C@]1(C(=O)NCc2cc(F)cc(C(F)(F)F)c2)C=C[C@@H](Cc2ccccc2)N1C(=O)c1ccccc1
→ 13%	9	1.4	-46	0	-1.5
- Cc1ccccc1OCC(=O)N/N=C/c1ccco1
→ -1.3%	14	0.7	-11	6	-2.3
- O=C(Nc1ccccc1O)c1ccc2c(c1)C(=O)N(N1C(=O)c3ccccc3C1=O)C2=O
→ 2.1%	6	-0.1	24	3	0.6
- NC(=O)CC(NC(=O)c1ccccc1)c1ccc(N2CCc3ccccc3C2)c([N+](=O)[O-])c1 (stereo unspecified)
→ -0.6%	29	0.7	-17	-15	-2.1
- Cc1nnc(SC(C)C(=O)Nc2ccc3c(c2)OCCO3)s1 (stereo unspecified)
→ .	-2	0.6	2	3	-0.6
- Cc1ccc(S(=O)(=O)n2cnc3cc([N+](=O)[O-])ccc32)c(C)c1
→ -0.2%	-10	0.1	-6	3	0.1
- CCOC(=O)CNS(=O)(=O)c1cc(-c2n[nH]c(=O)c3ccccc23)ccc1C
→ 1.2%	12	1.9	-7	-3	-7.0
- O=C(NCc1ccccc1C(F)(F)F)C1CC(c2cc(C(F)(F)F)cc(C(F)(F)F)c2)=NO1 (stereo unspecified)
→ 7.9%	13	2.8	6	7	2.5
- Cc1nc2sc3c(c2c(=N)n1N)CC(C)(C)OC3
→ 4.6%[38.3 µM]	-9	0.5	-1	1	-1.1

# Sequence of screens: PINK1 expr mod	TRPML1 blocker	TRPML1 agonist	D2 PAM	Six1-Eya2 inh	D2 agonist
- COc1ccccc1-n1c(=S)[nH]c2c(sc(=S)n2-c2ccccc2C)c1=O
→ 0.0%	5	-0.4	-2	-30	?
- COCCNC(=S)N1CCN(S(C)(=O)=O)CC1
→ 2.5%	-16	-0.5	-3	5	-1.3
- O=C1COc2ccc(C(=O)c3ccccc3C(=O)NCc3ccco3)cc2N1
→ -0.3%	18	2.4	-1	-5	-0.2
- COC(=O)CCSc1cc([N+](=O)[O-])cc2c1c(C1OCCS1)nn2-c1ccccc1 (stereo unspecified)
→ 2.4%	14	3.1	?	-24	1.3
- COc1ccc(S(=O)(=O)N(C)C[C@H]2Oc3c(NC(=O)Nc4c(C)noc4C)cccc3C(=O)N([C@H](C)CO)C[C@@H]2C)cc1
→ -0.4%	-9	1.1	0	16	-0.3
- Cc1ccccc1N(C(=O)CCCC(=O)Nc1ccccn1)C(C(=O)NC1CCCC1)c1ccc(O)cc1 (stereo unspecified)
→ 5.4%	23	0.0	-12	-1	-1.8
- O=C(CN1CCN(c2ccc(F)cc2)CC1)Nc1cc(C(F)(F)F)ccc1Cl
→ 1.3%	-10	0.0	-22	3	-2.4
- Cc1ccc(Cn2ccc(NC(=O)C3C4CCC(C4)C3C(=O)O)n2)cc1 (stereo unspecified)
→ 1.5%	-2	-0.6	27	-7	-1.6
- COC(=O)C1=C(N)Oc2cc(C)n(CCc3ccccc3)c(=O)c2C1c1cccnc1 (stereo unspecified)
→ 0.2%	-13	-1.1	4	-2	2.1
- Cc1cc(Cl)ccc1OCC(=O)N[C@@H](Cc1ccccc1)c1nc2ccccc2[nH]1
→ 2.6%	-1	-0.6	-22	15	7.1
- CCCN(CCC)CCCNC(=O)c1ccc2c(Cl)c3c(nc2c1)CCC3
→ -1.9%	1	1.0	-17	-24	-4.2
- CCOc1ccc(NC(=O)CSc2nc3ccccc3c(=O)n2CCNC(C)=O)cc1
→ -0.4%	7	-0.7	7	-1	-0.9
- CC(NC(=O)/C(=C\c1ccco1)NC(=O)c1ccco1)C(=O)O (stereo unspecified)
→ 0.7%	-5	-0.8	5	3	2.5
- O=C1Nc2ccccc2/C1=N/N=C/c1ccc(-c2ccc([N+](=O)[O-])cc2)o1
→ 6.0%	6	1.5	-6	-9	5.9
- O=c1c2oc3ccccc3c2ncn1Cc1ccc(Cl)cc1
→ 2.4%	-11	-0.5	-2	1	-2.9

# Sequence of screens: PINK1 expr mod	TRPML1 blocker	TRPML1 agonist	D2 PAM	Six1-Eya2 inh	D2 agonist
- CC(C)Oc1ccc(N2C(=O)c3ccccc3C2=O)cc1
→ -0.9%	3	-0.7	-20	-6	0.6
- COc1ccc(CNC(=O)N2CCc3ccccc3C2)cc1
→ 1.0%	0	-0.6	-10	-2	-3.6
- CCOC(=O)C(NC(C)=O)C(O)c1ccc([N+](=O)[O-])cc1 (stereo unspecified)
→ -0.4%	10	0.5	-6	11	2.5
- Cc1cc(C)nc(-n2nc(C)cc2NC(=O)c2cccc(S(=O)(=O)N3CCOCC3)c2)n1
→ -1.9%	-8	0.2	-10	1	-2.3
- Cc1cc(OCC(=O)Nc2ccc(CN3CCOCC3)cc2)c2c(C)c(C)c(=O)oc2c1
→ 6.7%	42	5.1	-6	-11	-1.2
- O=C(NCCc1nc2ccccc2[nH]1)/C(=C/c1ccc2c(c1)OCO2)NC(=O)c1ccccc1
→ -1.2%	-16	1.7	-17	-6	-2.7
- Cc1cccc(C)c1-n1nnnc1C(C)(C)N1CCN(N=O)CC1
→ 0.2%	36	0.7	-4	-9	-2.3
- CCCCn1c(SCC(=O)Nc2cccc(OC)c2)nc2c(sc3ccccc32)c1=O
→ 0.8%	-8	0.3	.	.	.
- Cc1cc(NC(=O)CCC2CCCC2)no1
→ 1.5%	-2	-0.5	-15	2	-5.3
- C=CCn1c(SCC(=O)Nc2c(C)n(C)n(-c3ccccc3)c2=O)nc2scc(-c3ccccc3)c2c1=O
→ -2.4%	-2	5.0	2	-7	-0.6
- CC(C)(C)Cc1nnc(NC(=O)CCc2ccccc2)s1
→ 5.0%	.	.	-13	12	-0.1
- CCOc1ccccc1NC(=O)CN(C)S(=O)(=O)c1cccc2nsnc12
→ 2.2%	9	1.0	-8	-20	-7.3
- COc1cccc(/C=C2/C(=O)NN(c3ccccc3)C2=O)c1
→ 12%	-14	-1.2	-1	6	-2.1
- COCCN(C(=O)CSc1nncn1-c1ccccc1)c1c(N)n(Cc2ccccc2)c(=O)[nH]c1=O
→ -1.6%	0	-0.6	-1	1	-5.9
- CCC(=O)N1CCC2(CC1)Oc1ccc(F)cc1C(=O)C21CC(c2ccccc2)=NO1 (stereo unspecified)
→ -0.9%	23	3.3	3	-3	6.8

# Sequence of screens: PINK1 expr mod	TRPML1 blocker	TRPML1 agonist	D2 PAM	Six1-Eya2 inh	D2 agonist
- COc1ccc(Cn2nnnc2C(CC(C)C)N2CCN(c3ccccc3)CC2)cc1 (stereo unspecified)
→ 1.7%	54	2.7	-5	-28	5.4
- CCOC(=O)C(=CNNc1cccc(Cl)c1)C(=O)OCC
→ 2.5%	-4	0.2	-4	4	0.1
- COC(=O)c1ccccc1NC(=O)CN1C(=O)CSC1=O
→ -2.5%	2	0.5	-13	3	-0.9
- CCOC(=O)CN(C(=O)COc1nc(-c2ccccc2)cc(C)c1C#N)c1ccccc1C
→ 0.9%	24	1.1	3	3	-1.5
- CCC/C(=C1/c2ccccc2C(=O)N1c1ccccc1)c1ccc2c(c1)OCCO2
→ 13%	-7	-0.4	-8	-3	0.7
- Cc1csc(NC(=O)Cc2ccccc2Cl)n1
→ -0.6%	25	0.0	-3	7	0.6
- CCNC(=O)C1(C)CCCN(C(=O)c2cc(C)nn2C(C)(C)C)C1 (stereo unspecified)
→ -0.7%	.	-0.4	-5	10	-2.9
- O=C(CSc1nc(C2CC2)n(-c2ccccc2)n1)NCc1ccco1
→ -0.7%	-13	-0.1	3	0	0.2
- CCCCN(C)CCn1c(=S)[nH]c2ccc(N3CCOCC3)cc2c1=O
→ 0.4%[38.3 µM]	7	-0.9	-13	-7	-0.6

# Source: PubChem BioAssay (National Center for Advancing Translational Sciences (NCATS))
